Tg IFNy HTS: T. gondii growth inhibition under IFN-gamma. Toxoplasma gondii growth in IFN-gamma-treated host cells; stronger effect = lower value; reference of the scale not given here. activity change, negative = inhibition, %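 (about 20 µM by stock and volumes)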. hit rate 3.8% among 69,000. AID 1259416;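 active means below -70%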;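 further: host cells are HeLa cells infected with Toxoplasma gondii; parasite growth read as luciferase light; one replicate is shown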
The depositor's hits bear a star; i = inactive. These rows are one share of the data; count on the stated rates, not on these rows.

SMILES	Tg IFNy HTS
CCS(=O)(=O)N1CCCCN2[C@H](C1)[C@H](c1ccc(C#Cc3ccccn3)cc1)[C@@H]2CO	25.1
CCS(=O)(=O)N1C[C@@H]2COC[C@]2(COCc2ccncc2)C1	-3.9
CCCCNS(=O)(=O)c1ccc(S(=O)(=O)NCc2ccncc2)cc1	-80.4*
CCCC#Cc1ccc2c(c1)O[C@@H](CN(C)Cc1ccccn1)[C@@H](C)CN([C@H](C)CO)S2(=O)=O	-29.5
CN1C(=O)c2cc(NS(=O)(=O)c3cccc(F)c3)ccc2OC[C@H]2O[C@H](CC(=O)N3CCc4ccccc4C3)CC[C@@H]21	-16.6
O=C(Nc1nc2ccccc2s1)c1c(O)c2c([nH]c1=O)CCCC2	106.0
Cc1nc(CCNC(=O)C2CCN(C(=O)c3ccc(Cl)cc3)CC2)cs1	-2.4
COc1ccc2c3c([nH]c2c1)[C@@H](CO)N(C)CC31CN(S(C)(=O)=O)C1	14.7
CCOc1cccc(C2c3[nH]c4ccccc4c3CCN2C(=O)c2cccc(OC)c2)c1 (stereo not drawn)	-103.5*
CN1CCC2(c3ccccc3)CCN(C(=O)CO)CC12 (stereo not drawn)	139.8
COc1ccc(C(=O)Nc2ccc(-c3nc(Cn4cc(C)cn4)c(C)o3)cc2)cc1	26.4
Cn1c2ccccc2c2ccc(CN3CCn4c(CO)nnc4C3)cc21	44.5
C=CCN1C(=O)CCC12CCCN(CC1CCOC1)CC2 (stereo not drawn)	-0.2
Cc1c(C)c2ccc(OCC(=O)N3CCOCC3)c(C)c2oc1=O	14.0
c1ccc(-n2nccc2-c2nccn2CCn2cccn2)cc1	6.0
CCOc1ccccc1-c1nc(Cn2ccn3nc(-c4ccc(Cl)cc4)cc3c2=O)c(C)o1	133.5
C[C@@H]1CCCCO[C@@H](CN(C)C(=O)CCCN(C)C)[C@@H](C)CN([C@@H](C)CO)C(=O)c2cc(NS(=O)(=O)c3ccc(Cl)cc3)ccc2O1	-14.0
CCCN1C[C@H](C)[C@@H](OC)CN(C)C(=O)c2cc(NC(=O)Nc3cccc(F)c3)ccc2OC[C@H]1C	450.5
CC[C@@H](Cn1nnc2ccccc2c1=O)NC(=O)Cc1ccccc1OC	-33.6
CC(C)Cc1ncc2c(n1)CN(C(=O)C1COC(=O)N1)C2 (stereo not drawn)	-21.6
CN(C)CCN(CCCc1ccccc1)Cc1ccncc1	0.1
CC(C)CN1C(=O)CCc2cc(NC(=O)C(C)C)ccc21	27.4
Cc1ccc(N2CCC(N(C)Cc3snnc3C)CC2)cc1	9.3
COc1c2ccoc2c(OC)c2oc(=O)ccc12	1.3
CC1CCN(c2ccc(NC(=O)c3cccnc3Cl)cc2)CC1	-4.2
Cc1cc(C(=O)Nc2cnc3n2CCCC3)n[nH]1	-9.1
COc1cc2cc(C)c(SCC(=O)N3CC(=O)Nc4ccccc43)nc2cc1OC	8.8
Nc1nc(N2CCOCC2)cc(N2CCNC(=O)CC2)n1	-1.0
O=C(c1csnn1)N1CC[C@@H](c2ccc3c(c2)OCO3)[C@H](O)C1	-5.4
Cn1c(CCc2nc3ccccc3[nH]2)nnc1SCc1ccc(C(C)(C)C)cc1	-13.8
COc1ccc(C(=O)N2CCc3onc(COCC4CC4)c3C2)cc1	14.5
O=C(CN1CCNC1=O)NCc1ccc2sccc2c1	3.4
CC1c2ccsc2CCN1S(=O)(=O)c1ccccc1 (stereo not drawn)	-7.8
Cc1ccc(-c2nc3c(s2)CN(S(=O)(=O)c2ccc(F)cc2)CC3)cc1	6.3
COc1ccc(CN2CCN(c3nc(C)cnc3C)CC2)c(OC)c1OC	-43.5
N#C[C@H]1[C@@H](c2ccccc2C2=CCCC2)[C@@H](CO)N1C(=O)C1CCOCC1	-49.6
CCN(CCS(=O)(=O)c1ccc(C)cc1)C(=O)c1cn[nH]n1	2.0
Cc1oc(-c2ccc(C(=O)NCC3COCCO3)cc2)nc1CN1CCc2ccccc21 (stereo not drawn)	195.9
CCOc1cccc(C2c3[nH]c4ccccc4c3CCN2C(=O)COC)c1 (stereo not drawn)	i
O=c1oc2ccccc2cc1-c1csc(-c2ccc(Cl)cc2)n1	6.7
CC(C)(C(=O)N1CCCC1c1nc(-c2cccnc2)n[nH]1)c1ccc(Cl)cc1 (stereo not drawn)	1.6
O=C(CCc1ccc(O)cc1)NCCN1CCCc2ccccc21	10.2
CC(C)(C)c1cc(C(=O)CSc2nc3ccccc3[nH]2)cc(C(C)(C)C)c1O	-38.3
O=C(c1ccc(=O)[nH]c1)N1C[C@@H]2C3CCC(CC3)[C@@H]2C1	2.4
O=C(O)c1ccc2c(c1)C(=O)N(N1C(=O)c3ccccc3C1=O)C2=O	29.0

An excerpt of these results, field by field.
> CCS(=O)(=O)N1CCCCN2[C@H](C1)[C@H](c1ccc(C#Cc3ccccn3)cc1)[C@@H]2CO
- Tg IFNy HTS: 25.1
> CCS(=O)(=O)N1C[C@@H]2COC[C@]2(COCc2ccncc2)C1
- Tg IFNy HTS: -3.9
> CCCCNS(=O)(=O)c1ccc(S(=O)(=O)NCc2ccncc2)cc1
- Tg IFNy HTS: -80.4*

Remaining list, next part
SMILES	Tg IFNy HTS
CC(C)[C@H]1C(=O)N[C@H](c2ccc(F)cc2)CC=CC[C@@H](C)Oc2ccccc2C(=O)N1C (mixture of isomers)	-48.6
CC(C)C(=O)Nc1nc(-c2ccc(Br)cc2)cs1	65.1
CCOC(=O)N1CCC(NC(=O)C2CC23CCN(C(=O)c2cccc4ccccc24)CC3)CC1 (stereo not drawn)	10.8
CCOC(=O)C1=C(C)NC(C)=C(C(=O)OCC)C1c1ccccc1/C=C/C(=O)OC(C)(C)C	-63.3
Cc1noc(C)c1NC(=O)Nc1ccc2c(c1)C(=O)N([C@@H](C)CO)C[C@@H](C)[C@@H](CN(C)Cc1ccc3c(c1)OCO3)OCCCC[C@H](C)O2	231.2
Cc1ccccc1C1(O)CCN(C(=O)CCc2n[nH]c3c2CCCC3)C1 (stereo not drawn)	-0.3
COc1ccc(CC(=O)NCCc2csc(-c3ccc(Cl)cc3)n2)cc1	41.6
C[C@H](CO)N1C[C@H](C)[C@@H](CN(C)C(=O)CN2CCOCC2)Oc2ncc(-c3ccncc3)cc2C1=O	28.7
C=C1C(=O)O[C@H]2[C@H]1CC/C(C)=C\CC[C@@]1(C)O[C@@H]21	-42.4
O=C(NCCc1nc2ccccc2[nH]1)c1cccc(Br)c1	-21.9
C=CCn1nc(C)c(-c2cc(C(=O)O)[nH]n2)c1C	-9.6
COc1cc(-c2noc(-c3nnn(Cc4nc(-c5ccccc5)oc4C)c3C)n2)ccc1OC(C)C	1.8
Cc1ncccc1C(=O)N1CC[C@@H](c2ccc3ccccc3c2)[C@H](O)C1	1.5
Clc1nc2ccccc2nc1N1CCN(C2CCCCC2)CC1	-30.6
CC(C)N1CCc2ncn(C)c2C1C(=O)Cc1ccccn1 (stereo not drawn)	-8.0
CC(C)CN1C[C@H]2C(=O)N(C)C3(CCN(C(=O)c4ccncn4)CC3)[C@H]2C1	0.2
CC(=O)c1cc(C)n(Cc2cccc(C(=O)O)c2)c1C	18.9
COc1ccc(-c2nc(CCNC(=O)Cc3ccc(F)cc3)cs2)cc1	i
O=C(Nc1ccc(Cl)cc1)c1ccc(-c2ccccn2)s1	227.9
COCCN1CCC(c2nc3c([nH]2)CC(c2ccc(F)cc2)CNC3=O)CC1 (stereo not drawn)	-10.7
Cc1cnccc1N1CCCN(C(=O)c2cccc3ccnn23)CC1	8.8
CCCC[C@H](NC(=O)[C@@H]1[C@@H]2[C@H](CN1C(=O)[C@@H](NC(=O)NC1(CS(=O)(=O)C(C)(C)C)CCCCC1)C(C)(C)C)C2(C)C)C(=O)C(=O)NC1CC1	15.7
Cc1ccc(OCc2ccc(C(=O)N3CCc4ccccc4C3)o2)cc1C	109.6
C[C@@H](O)C#Cc1ccc([C@@H]2[C@H]3CN(C(=O)c4ccc5c(c4)OCO5)CCCCN3[C@H]2CO)cc1	3.9
CCS(=O)(=O)N1[C@H](CO)[C@H](c2ccccc2)[C@@H]1CN(C)Cc1ccccn1	-14.6
O=C(NCC1CCCO1)c1ccc(-n2ccnc2)c(-n2cccc2)c1 (stereo not drawn)	-25.1
O=C(NC1CCSC1=O)c1sc2ccccc2c1Cl (stereo not drawn)	28.6
O=C(C[C@@H]1CC[C@@H]2[C@H](COC[C@H](O)CN2S(=O)(=O)c2ccccc2)O1)Nc1ccccc1	13.4
C[C@@H]1COCc2cn(nn2)CCCC(=O)N1	12.0
CCOc1cccc(-c2noc(-c3c(O)c4ccccc4n(C)c3=O)n2)c1	-14.0

Compounds listed so far with a furan ring, fused or not, in the order listed:
SMILES	Tg IFNy HTS
COc1c2ccoc2c(OC)c2oc(=O)ccc12	1.3
Cc1ccc(OCc2ccc(C(=O)N3CCc4ccccc4C3)o2)cc1C	109.6

(cont.)
SMILES	Tg IFNy HTS
O=C(N1CCCC1)N1CCC2(CC(=O)N(c3cccc(F)c3)C2)C1 (stereo not drawn)	2.7
CC1=C(C(=O)N(C)Cc2cc(C3CC3)on2)C(C)NC(=O)N1 (stereo not drawn)	0.7
O=C(O)[C@@H]1[C@@H](CO)[C@@H]2Cn3c(ccc(/C=C/c4ccccc4)c3=O)[C@@H]2N1Cc1ccc2c(c1)OCO2	20.0
CO[C@H](CN(C)Cc1nccs1)[C@@H](C)CN([C@H](C)CO)S(=O)(=O)c1ccc(F)cc1	5.0
CN1[C@@H]2CN(C(=O)C3CCCCC3)c3ccccc3[C@@H]2[C@@H]1CO	-39.3
COC(=O)C[C@@H]1CC[C@@H]2[C@H](COc3ccc(NC(=O)c4ccc(C(F)(F)F)cc4)cc3C(=O)N2C)O1	-40.5
COc1cccc(S(=O)(=O)N[C@H]2CC[C@H](CC(=O)NC3Cc4ccccc4C3)O[C@H]2CO)c1	61.5
CN1CCC(Cc2noc(CCn3cccc3)n2)CC1	0.2
OC[C@@H]1[C@H](c2ccc(-c3cccnc3)cc2)[C@@H]2CN(Cc3ccccn3)CCCCN12	-40.2
CC(C)=CCN1CCc2c([nH]c3ccccc23)C1c1cccc(C)n1 (stereo not drawn)	20.7
CCN(CC)C(=O)c1cc(=O)n(CC(=O)Nc2c(C)cc(C)cc2C)c2ccccc12	2.0
Fc1cccc(CN2CCN(Cc3ccc(-c4ccccc4)nc3)CC2)c1	-0.4
O=C(CSc1nnc(CNc2ccc(F)cc2)o1)N1CCc2ccccc2C1	-81.0*
Cc1oncc1C(=O)N1CCC2(CC1)C(=O)N(c1ccoc1)c1ccccc12	4.4
COc1cc(Nc2nc(-c3nnc(-c4ccc(F)cc4)o3)nc3ccccc23)cc(OC)c1OC	126.6
CCc1ccc(C(=O)Nc2ccc3c(c2)CCC(=O)N3C)cc1	-51.8
O=C(c1ccccc1F)N1CC[C@@H]2[C@@H](CO)Nc3ccc(Br)cc3[C@@H]21	22.1
O=C(c1cccc2c(=O)c3ccccc3[nH]c12)N1CCCC2(CCNCC2)CC1	58.6
O=C(O)C1c2ccccc2C(=O)N(C2CCCCC2)C12CCCCC2 (stereo not drawn)	-30.2
CCc1c(C)sc2c1CCN(Cc1nc(-c3cccc(Cl)c3)oc1C)C2c1ccccc1 (stereo not drawn)	-70.1
CNC(=O)C[C@@H]1CC[C@H]2[C@@H](COc3ccc(NS(=O)(=O)c4ccc(F)cc4)cc3C(=O)N2C)O1	13.8
CO[C@H](CN(C)Cc1ccc2c(c1)OCO2)[C@H](C)CN(C(=O)c1ccccc1)[C@@H](C)CO	-29.1
Cc1oc(C2CCN(C(=O)Nc3ccccc3C(F)(F)F)CC2)nc1C(=O)N(C)C	-1.1
CC(C)n1cnc2nnc3ccc(C(=O)N(C)Cc4ccccn4)cc3c21	-3.2
CCc1cccc(NC(=O)C2=C(C)C(=O)OC23CCN(CC)CC3)c1	165.7
CN(C)C(=O)NCc1nn(C)c2c1CN(C1CCOCC1)C2	-1.7
COc1cccc(Cn2c(-c3sccc3C)n[nH]c2=O)c1	12.0
COc1ccc(-c2ccccc2[C@H]2[C@@H](C#N)N(C(=O)C3CCC3)[C@H]2CO)cc1	-12.0
CC(=O)Nc1nc(C(=O)NC2CC3(CCOCC3)Oc3ccccc32)cs1 (stereo not drawn)	14.3
Cc1ccccc1S(=O)(=O)N1CCCCN2[C@H](CO)[C@@H](c3ccc(C#CCN(C)C)cc3)[C@@H]2C1	9.3
COc1ccc(S(=O)(=O)N2CC[C@@H]3[C@H](CO)Nc4ccc(Br)cc4[C@@H]32)cc1	16.2
Cc1ccc(Oc2ccc(CNC(=O)c3c(-c4ccncc4)noc3C)cc2)cc1	-84.1*
Cc1ccoc1C(=O)N(Cc1ccsc1)CC1CCCO1 (stereo not drawn)	-10.1
CCCCNC(=O)n1ccc(-c2nn(-c3ccc(F)cc3)ccc2=O)n1	-32.9
Cc1oc(C2CCN(C(=O)Nc3ccc(F)cc3F)CC2)nc1C(=O)N(C)C	81.0
CCN1c2cc(C)ccc2-n2cccc2C12CCN(S(=O)(=O)c1ccccc1Cl)CC2	-78.0*
Clc1ccc(OCc2nn[nH]n2)c(Cl)c1	-49.4
CCOC(=O)c1cnn(-c2ncnc3sc4c(c23)CCN(C(=O)OCC)C4)c1N	37.4
O[C@@H]1CCN(Cc2nccs2)[C@@H]1Cc1cccnc1	174.3
CN(C)C(=O)[C@H]1C[C@@H]2CN(S(=O)(=O)c3ccccc3)C[C@H]1O2	2.8
CCOc1ccc(-c2cc3c(=O)n(Cc4nc(-c5ccc(OCC)c(OC)c5)oc4C)ccn3n2)cc1	137.7
CNC(=O)C(C)N(C)Cc1cc(F)ccc1-n1nc(C)cc1C (stereo not drawn)	-51.3
CO[C@@H]1CN(C)C(=O)c2cc(NC(=O)NC(C)C)ccc2OC[C@@H](C)N(Cc2ccccc2)C[C@H]1C	34.0
CS(=O)(=O)N1CC(=O)N2[C@H](CO)[C@@H](c3ccc(C#CCC4CCCC4)cc3)[C@@H]2C1	-19.0

Arranged by formula weight (highest first): part of the list above
SMILES	Tg IFNy HTS
CN1C(=O)c2cc(NS(=O)(=O)c3cccc(F)c3)ccc2OC[C@H]2O[C@H](CC(=O)N3CCc4ccccc4C3)CC[C@@H]21	-16.6
COc1ccc(S(=O)(=O)N2CC[C@@H]3[C@H](CO)Nc4ccc(Br)cc4[C@@H]32)cc1	16.2
CNC(=O)C(C)N(C)Cc1cc(F)ccc1-n1nc(C)cc1C (stereo not drawn)	-51.3
CN(C)C(=O)NCc1nn(C)c2c1CN(C1CCOCC1)C2	-1.7
CC(C)Cc1ncc2c(n1)CN(C(=O)C1COC(=O)N1)C2 (stereo not drawn)	-21.6
